KCNQ2 inh = KCNQ2 potassium channel inhibitors, primary screen, cell-based, CHO-K1, FluxOR thallium flux, B-score (AID 2156); O88943; 20 min; hits give low values; only compounds with negative scores are shown here; some inactives read as strong as hits; B-score at 10 µM; 310,000 tested, 1.1% active;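 active = fluorescence ratio B-score at most minus 3 library SDs, with starting brightness B-score within 2 library SDs, cut at about -5.5 in these data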
Target sequence (O88943 whole entry, looked up): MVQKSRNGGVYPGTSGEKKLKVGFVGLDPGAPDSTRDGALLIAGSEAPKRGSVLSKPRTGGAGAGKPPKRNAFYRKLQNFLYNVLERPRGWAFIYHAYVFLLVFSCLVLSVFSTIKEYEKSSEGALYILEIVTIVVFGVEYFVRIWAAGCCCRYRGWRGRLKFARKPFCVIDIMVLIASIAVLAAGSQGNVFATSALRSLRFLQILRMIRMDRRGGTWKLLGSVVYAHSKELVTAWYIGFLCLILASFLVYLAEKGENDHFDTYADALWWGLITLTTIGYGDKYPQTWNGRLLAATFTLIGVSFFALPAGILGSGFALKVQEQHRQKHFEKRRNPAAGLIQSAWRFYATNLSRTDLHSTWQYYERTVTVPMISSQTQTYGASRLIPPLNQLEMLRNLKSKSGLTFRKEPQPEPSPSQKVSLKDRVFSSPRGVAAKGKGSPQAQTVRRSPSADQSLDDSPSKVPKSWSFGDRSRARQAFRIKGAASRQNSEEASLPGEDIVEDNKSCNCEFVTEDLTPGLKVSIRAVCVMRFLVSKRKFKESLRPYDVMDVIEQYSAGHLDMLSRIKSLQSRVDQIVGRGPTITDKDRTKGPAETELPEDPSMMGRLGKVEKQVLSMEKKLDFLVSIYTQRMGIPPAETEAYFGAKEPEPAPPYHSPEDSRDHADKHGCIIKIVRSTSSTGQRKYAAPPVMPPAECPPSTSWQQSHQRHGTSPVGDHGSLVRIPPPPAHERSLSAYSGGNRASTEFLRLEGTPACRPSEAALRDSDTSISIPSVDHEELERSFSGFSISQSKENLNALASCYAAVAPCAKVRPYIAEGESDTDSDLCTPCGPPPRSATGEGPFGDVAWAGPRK
KCNQ2 inh baseline = second read-out of KCNQ2 inh, no call of its own (marks repeat the call); B-score; measured here: initial fluorescence intensity artifact check;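 brightness before thallium and not channel activity; 0 = typical well and far values either way flag optical interference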
Active calls of the source: *; i = inactive. A portion of the library; rates above refer to the full screens.

SMILES | KCNQ2 inh | KCNQ2 inh baseline
COc1cc(CN2CC(=O)N(c3ccc(C)c(Cl)c3)C2=S)cc(OC)c1OC | i | -3.1
CCOC(=O)[C@@H]1[C@H]2COc3ccc(Br)cc3[C@H]2N2C(=O)N(c3ccc(F)cc3)C(=O)[C@]12C | i | -0.35
CCSc1nnc(NC(=O)CSc2nc3c(c(=O)n2CCOC)SC(C)C3)s1 (stereo unspecified) | i | -3.4
Clc1ccc(SCCCCn2ccnc2)cc1 | i | 1.1
COc1cccc(C(=O)NCCn2ccc3ccccc32)c1 | i | 0.16
Oc1ccc(-c2n[nH]c(=S)n2Cc2ccccc2)cc1 | i | 1.8
O=[N+]([O-])c1cc(CN2CCN(c3cccc(C(F)(F)F)c3)CC2)c2cccnc2c1O | i | -0.15
COC(=O)c1[nH]c2ccc(Br)cc2c1NC(=O)CN1CCN(C2CCCCC2)CC1 | i | -1.6
COc1ccc(N2CCN(C(=O)COC(=O)CCS(=O)(=O)c3ccc(C)cc3)CC2)cc1 | i | -0.36
O=C(CSc1nnc(-c2ccncc2)o1)Nc1nncs1 | i | -0.02
O=C(Nc1ccc2c(c1)OCO2)c1ccccc1 | i | 2.2
COc1ccccc1-c1nnc(SCC(=O)Nc2ccc3[nH]c(=O)[nH]c3c2)n1N | i | -0.04
Cc1cc(C)c(S(=O)(=O)N2CCCC(C(=O)N3CCOCC3)C2)c(C)c1 (stereo unspecified) | i | 1.3
Cc1ccc(S(=O)(=O)N2CCCC(C(=O)NCc3ccccc3F)C2)cc1 (stereo unspecified) | i | -0.05
COC(=O)c1c(C)[nH]c(C(=O)OCC(=O)N(CC(C)C)c2c(N)n(Cc3ccccc3)c(=O)[nH]c2=O)c1C | i | 0.06
Cn1c(=O)oc2cc(S(=O)(=O)N3CCC4(CC3)OCCO4)ccc21 | i | 0.23
CC(=O)N1c2ccc(C)cc2C(c2ccccc2)CC1C (stereo unspecified) | i | 3.2
CSCCC(NC(=O)c1ccco1)C(=O)Nc1cc(C)ccn1 (stereo unspecified) | i | -0.15
Cc1ccc(NC(=O)CCC(=O)NNS(=O)(=O)c2ccc(Cl)cc2)cc1C | i | -0.74
Cn1c(SCc2cc(=O)[nH]c3ccccc23)nnc1-c1ccc(Br)cc1 | i | 1.2
COc1ccc(C(=O)N2CCN(C(C)=O)CC2)cc1S(=O)(=O)NCc1ccc(Cl)cc1 | i | -1.5
CCOC(=O)N1CCC(NC(=O)C2CCN(S(=O)(=O)N3CCCC3)CC2)CC1 | i | 0.01
Cc1cc(OCCCCCNCCO)cc(C)c1Cl | i | -0.54
CC(C)c1ccc(NC(=O)C2CCN(S(C)(=O)=O)CC2)cc1 | i | -1.2
CC12CN(C(=S)Nc3ccccc3)CC(C)(CN(C(=S)Nc3ccccc3)C1)C2=O | i | 0.54
CC(=O)c1ccc(N2CCN(S(=O)(=O)c3c(C(=O)N4CCCC4)c(C)n(C)c3C)CC2)cc1 | i | 1.6
COc1ccc(S(=O)(=O)NCCSCc2cccc(C)c2)cc1Br | i | 1.2
O=C(Nc1ccc(Cl)cc1)OCc1cc(-c2ccccc2Cl)on1 | i | -0.01
Cc1c(C(=O)N(C)CC(=O)Nc2cccc(F)c2)oc2c(Cl)cccc12 | i | -0.25
CN(C)C1(CNC(=O)c2cccc(S(=O)(=O)Nc3ccc(Br)cc3)c2)CCCCC1 | i | 0.69
O=[N+]([O-])c1ccc(Cl)c(CN2CCN(c3ncccn3)CC2)c1 | i | 0.62
CS(=O)(=O)N1CCCC(C(=O)Nc2ccccc2Cl)C1 (stereo unspecified) | i | 1.8
Cc1cccc(CSCCNC(=O)c2ccc(N(C)S(=O)(=O)c3ccccc3)cc2)c1 | i | 0.56
CCOC(=O)C1CCN(C(=O)CCc2c(C)nc3c(-c4ccc(F)cc4)c(C)nn3c2C)CC1 | i | 0.56
Cc1ccc([N+](=O)[O-])cc1NC(=S)NC(=O)C(C)(C)C | i | -0.46
CC(C)(C)NC(=O)Cn1c(SCC(=O)NC2CCCCC2)nc2ccccc21 | i | -1.3
C=CCn1c(SCC(=O)c2ccc(Cl)cc2)nnc1-c1ccc2c(c1)OCO2 | i | -0.9
CC(=O)Oc1ccc(N(C(C)=O)S(=O)(=O)c2ccc3ccccc3c2)cc1 | i | 0.26
CCC1=Nc2cc(C(=O)NCc3ccco3)ccc2Sc2ccc(C)cc21 | i | 1.6
COc1cc(NC(=O)C2CCN(S(=O)(=O)c3ccc(Cl)cc3)CC2)ccc1-n1cnnn1 | i | 1.6
Cc1ccc(C(=O)NC(c2ccccc2)C(Cl)Cl)cc1 (stereo unspecified) | i | -0.36
COc1ccccc1C1Nc2cccc3cccc(c23)N1 | i | 0.25
CC(/C=N/Nc1nc(C)cc(=O)[nH]1)=C\c1ccccc1 | i | -1.3
CNC(=S)N(Cc1ccc(OC)cc1)Cc1cc2cccc(C)c2[nH]c1=O | i | 3.2
CCn1c(CNc2ccccc2Cl)nnc1SCC(=O)NCc1ccccc1 | i | -1.2

5 entries already listed, sorted by length of the SMILES, low to high.
SMILES | KCNQ2 inh | KCNQ2 inh baseline
CS(=O)(=O)N1CCCC(C(=O)Nc2ccccc2Cl)C1 (stereo unspecified) | i | 1.8
CNC(=S)N(Cc1ccc(OC)cc1)Cc1cc2cccc(C)c2[nH]c1=O | i | 3.2
C=CCn1c(SCC(=O)c2ccc(Cl)cc2)nnc1-c1ccc2c(c1)OCO2 | i | -0.9
Cc1cccc(CSCCNC(=O)c2ccc(N(C)S(=O)(=O)c3ccccc3)cc2)c1 | i | 0.56
CCOC(=O)C1CCN(C(=O)CCc2c(C)nc3c(-c4ccc(F)cc4)c(C)nn3c2C)CC1 | i | 0.56

(list continues)
SMILES | KCNQ2 inh | KCNQ2 inh baseline
Cc1ccc(Sc2cnn(-c3ccccc3)c(=O)c2Cl)cc1 | i | 0.03
OCC1(Cc2ccc(Cl)cc2)CCN(Cc2ccc3nsnc3c2)CC1 | i | -0.31
S=C(NCCCc1ccccc1)Nc1ccc(Br)cc1 | i | 1.7
CC(C)c1ccc2[nH]c3nc(SCC(=O)NC4CC4)nnc3c2c1 | i | 2.5
CCOC(=O)c1c(-c2ccccc2)oc2ccc(OCC(O)CN(C)C)cc12 (stereo unspecified) | -5.6* | -0.63*
Cc1ccccc1C(=O)N1CCN(c2ccc(N3CCOCC3)nn2)CC1 | i | -0.51
Cc1cccc(OCC(=O)OC(C)C(=O)Nc2ccc(Cl)cn2)c1 (stereo unspecified) | i | -0.38
CC(C#CCN1CCCCC1)OCCOCc1ccccc1 (stereo unspecified) | i | 0.08
O=C(NCc1ccccc1Cl)C(=O)NCC1OCCN1S(=O)(=O)c1ccc(F)cc1 (stereo unspecified) | i | -0.31
O=C(CSC1=NCCS1)Nc1nc(-c2ccccc2)cs1 | i | -0.13
Cc1cc(N2CCCC2)ccc1/C=C1\NC(=S)N(C)C1=O | i | 1.9
Cc1ccc(-n2nc(C)c3c2OC(N)=C(C#N)C3c2ccccc2F)cc1 (stereo unspecified) | i | 0.01
CC(C)CCC(CCN1CCCC1)c1ccc2c(c1)OCO2 (stereo unspecified) | i | 1.1
Nc1c(N(C(=O)Nc2ccc(Cl)c(Cl)c2)C2CCCC2)c(=O)[nH]c(=O)n1Cc1ccccc1 | i | -2.5
COC(=O)c1c(NC(=O)c2ccc([N+](=O)[O-])o2)sc2c1CCN(C(C)C)C2 | i | 0.15

Entries of single compounds from above. Values in the order: KCNQ2 inh	KCNQ2 inh baseline
OCC1(Cc2ccc(Cl)cc2)CCN(Cc2ccc3nsnc3c2)CC1 as listed: i	-0.31
Nc1c(N(C(=O)Nc2ccc(Cl)c(Cl)c2)C2CCCC2)c(=O)[nH]c(=O)n1Cc1ccccc1 as listed: i	-2.5
CC(C)c1ccc2[nH]c3nc(SCC(=O)NC4CC4)nnc3c2c1 as listed: i	2.5
Cc1ccc(Sc2cnn(-c3ccccc3)c(=O)c2Cl)cc1 as listed: i	0.03

Continued:
SMILES | KCNQ2 inh | KCNQ2 inh baseline
CCOC(=O)C1C(=O)OC(C)(C)C1C(CC)C(=O)c1c(C)cc(C)cc1C (stereo unspecified) | i | 2.3
COc1ccc(OC)c(NC(=O)CSc2nc(=O)n(CCN3CCOCC3)c3c2CCC3)c1 | i | 0.07
CCCCOc1ccc(C2CCC(C(C)=O)C(C)C2)cc1 (stereo unspecified) | i | -0.05
CCN(CC)S(=O)(=O)c1ccc(C)c(NC(=O)CN(C)C)c1 | i | 0.15
CC(=O)Nc1ccc2nc3ccccc3nc2c1 | i | 4.4
CCOC(=O)c1[nH]c2ccc(F)cc2c1NC(=O)CN1CCN(C/C=C/c2ccccc2)CC1 | i | -0.63
CC(=O)Nc1ccc(S(=O)(=O)NCCNC(=O)c2ccccc2F)cc1 | i | 0.37
CCCn1c(CC)nc([N+](=O)[O-])c1S(=O)(=O)c1ccccc1 | i | -0.03
CCc1cccc(C)c1NC(=S)NCCc1c(C)[nH]c2ccc(C)cc12 | i | -1.6
Cc1ccc(Cl)cc1N1CCN(S(=O)(=O)c2cnc[nH]2)CC1 | i | 0.51
Cc1cccc(NC(=O)CN2C(=O)NC(C)(c3ccc4c(c3)OCO4)C2=O)c1 (stereo unspecified) | i | -0.05
COC(=O)C1=C(C)OC(N)=C(C#N)C1c1cc2cc(C)ccc2nc1Cl (stereo unspecified) | i | 0.46
COc1ccccc1NC(=S)NCCC(c1ccccc1)c1ccccc1 | i | 1.8
COc1ccccc1-c1ccc(NC2CCCCC2)nn1 | i | 0.13
COc1ccc([N+](=O)[O-])cc1N(CC(O)Cn1nnc2ccccc21)S(=O)(=O)c1ccc(C)cc1 (stereo unspecified) | i | -0.39
Cc1cc(C)n(S(=O)(=O)c2ccc(C(C)(C)C)cc2)n1 | i | -1.1
COCCNC(=O)C1CCC(CNS(=O)(=O)c2ccccc2)CC1 (stereo unspecified) | i | -0.53
Cc1cccc(NNC(=O)C(=O)NNc2cccc(C)c2)c1 | i | 0.01
O=C(O)c1ccc(N2CC3CC(C2)c2cccc(=O)n2C3)c(NS(=O)(=O)c2cccc(C(F)(F)F)c2)c1 (stereo unspecified) | i | 0.06
O=C1C2C(C(=O)N1/N=C/c1cccc([N+](=O)[O-])c1)C1C=CC2C12CC2 (stereo unspecified) | i | 0.61
Clc1ccc(-c2nc3ccccn3c2CN2CCCCC2)cc1 | i | 0.26
CC(C)n1nc(C(=O)OCC(=O)c2c[nH]c3ccccc23)c2ccccc2c1=O | i | 0.9
Cc1cc(=O)[nH]c(SCC(=O)Nc2ccc(C)c(S(=O)(=O)N3CCCCC3)c2)n1 | i | -1.2
CCOC(=O)c1ccc(S(=O)(=O)NNC(=O)c2ccc3c(c2)nc(C)n3CC)cc1 | i | -1.2
CC(C)n1c(SCC(=O)N2CCCCC2)nc2c1c(=O)n(C)c(=O)n2C | i | 0.98
CCS(=O)(=O)c1ccc2c(c1)N(S(C)(=O)=O)CC(C(=O)NN)O2 (stereo unspecified) | i | 0.82
CC(C)Cn1c(CN2CCN(c3ccccc3F)CC2)nc2c1c(=O)[nH]c(=O)n2C | i | 1.6
CCOc1ccc(C(=O)N/N=C(/C)C2C(=O)c3ccccc3C2=O)cc1 | i | -0.33
O=C(CSc1nnc(-c2ccccc2)n1Cc1ccco1)NCc1ccc2c(c1)OCO2 | i | -0.61
COc1ccc(CCN2CC(C(=O)N(C)CC(=O)Nc3cccc(F)c3)CC2=O)cc1OC (stereo unspecified) | i | -0.21
CCCc1cc(=O)oc2cc(OCC(=O)Nc3ccc(CN4CCOCC4)cc3)c(Cl)cc12 | i | 1.1
O=C(NCc1ccccn1)C1CCN(S(=O)(=O)c2cc(Cl)ccc2Cl)CC1 | i | -2.5
CC1CC2(CCCC2)Nc2ccc(F)cc21 (stereo unspecified) | i | -0.09
Cc1nnc(SCC2=C(C(=O)O)N3C(=O)C(NC(=O)Cn4nc(C(F)F)cc4C)C3SC2)s1 (stereo unspecified) | i | -0.46
CN(C)CCN(C(=O)c1ccc2ccccc2c1)c1nc2c(F)cccc2s1 | i | 4.5
CC1CCCC(C)N1C(=O)COC(=O)c1ccc(F)c(S(=O)(=O)N2CCOCC2)c1 (stereo unspecified) | i | -1.3
Cc1cc(C)c(S(=O)(=O)N2CCN(c3ccccc3)CC2)c(C)c1 | i | -0.28
Cc1ccc(/C=N\NC(=O)CC(=O)NCCc2ccccc2)cc1 | i | -0.33
Cc1cccc(C)c1NC(=O)CN(C)C(=O)CSCc1c(C)noc1C | i | -0.81
O=C1CCCC2=C1C(c1ccncc1)Nc1ccccc1N2 (stereo unspecified) | i | 0.96
CCc1ccc(C(=O)NNC(=O)CCN2CCN(Cc3ccccc3)CC2)cc1 | i | -0.38
O=C(Nc1ccccc1)N1CCC(C(=O)N2CCN(S(=O)(=O)c3cccc(F)c3)CC2)CC1 | i | 0.18
Cc1ccc(Cn2nnc3c(=O)n(Cc4cccc(C)c4)cnc32)cc1 | i | -0.05
Cc1ccc(C)c(NC(NC(=O)c2cccnc2)C(Cl)(Cl)Cl)c1 (stereo unspecified) | i | 0.67
COc1ccc(C(=O)NCCCOc2cccnc2)cc1OC1CCN(C(C)=O)CC1 | i | 0.31
CC(=O)c1ccc(OCC(=O)NCC(c2ccco2)N2CCCCC2)cc1 (stereo unspecified) | i | -0.72
CCOC(=O)Oc1ccc(C(=O)OCCCN(C)C)cc1OC | i | 0.96
COc1cccc(/C=N\NC(C)=O)c1OC/C=C/c1ccccc1 | i | -0.52
O=c1c(Cl)cc(Cl)nn1-c1ccccc1 | i | 3.4
O=C1NN(c2cccc(Br)c2)C(=O)/C1=C\c1ccc(N2CCOCC2)cc1 | i | -0.29
O=S1(=O)NC(=NCC(c2ccco2)N2CCCCC2)c2ccccc21 (stereo unspecified) | i | 1.5
CC(NC(=O)COc1ccccc1)C(=O)OCC(=O)c1cc2ccccc2o1 (stereo unspecified) | i | 0.72

Screens: PubChem, Johns Hopkins Ion Channel Center
